High-throughput results (PubChem BioAssay)
Ab BasE inh: blocks the Acinetobacter baumannii siderophore enzyme BasE; 0.1% of 84,000 active; purified BasE, fluorescence polarization binding displacement; AID 485350; inhibition, % (concentration not given with the values);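 active = both replicates above 25% with normal brightness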;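 also: 0% = negative plate control signal and 100% = positive plate control signal; stock transfer was 100 nL into about 30 µL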
LANA-nucl inh: inhibitors of KSHV LANA binding to nucleosomes; FITC-LANA1-23 / chicken nucleosome fluorescence polarization; stronger effect = lower value; z-score (no concentration beside the values); 0.3% of 51,000 active;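 active = both repeat wells score below -2 in polarization z-score versus plate sample wells, excluding overly bright wells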;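 also: 100 nL library stock added to about 30 µL; numbers are from one replicate; some results filed as inactive read as strong as hits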
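Test system: purified chicken nucleosomes with FITC-labelled LANA N-terminal peptide (1-23); Input: 240 nM purified chicken nucleosomes (480 nM peptide binding sites), final; Medium: TEN-BT buffer, pH 7.5; Timing: 10–45 min, room temperature; Technique: fluorescence polarization, 480 nm excitation, 535 nm parallel and perpendicular emission; Replication: duplicates.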
Active calls of the source: *; x = not tested or not shown; & = joins results of further samples. An excerpt, so the mix of outcomes need not match the whole.

SMILES	Ab BasE inh	LANA-nucl inh
CCCSc1nsc(NC(=O)/C=C/c2cccs2)n1	-1.6	x
Cc1ccc(-c2ocnc2C(=O)N2CCOCC2)cc1	-1.5	1.03
S=C(NC1CCCCCC1)NC1CC1	2.5	0.146
O=C(CCCOc1ccccc1)NC1CCSC1=O (stereo unspecified)	3.6	0.551
Cc1ccc(S(=O)(=O)N(C)CC(=O)O)cc1	0.2	-1.04
N#CSCc1nc2ccccc2c2nc3ccccc3n12	-2.0	x
N#CC(C#N)(CC(=O)N1CCCc2ccccc21)CC(=O)N1CCCc2ccccc21	0.5	x
N#Cc1ccsc1/N=C/c1ccccc1C(F)(F)F	x	2.58
O=C(CSc1ncccc1C(=O)O)NC12CC3CC(CC(C3)C1)C2	3.3	x
CCn1c(=O)c(=O)[nH]c2cc(C(=O)N3CCN(c4ccccc4O)CC3)ccc21	0.7	x
CC(NC(=O)NCc1ccccc1)c1nc(-c2ccncc2)n[nH]1 (stereo unspecified)	5.9	-0.207
COC(=O)c1ccccc1NC(=O)C1=C(C)C(=O)OC12CCN(C(C)=O)CC2	-2.0	-0.123
O=C(CSC(=S)N1CCCC1)NC1CCCCCC1	1.0	x
CCc1ccccc1OCC(=O)Nc1ccc(S(N)(=O)=O)cc1	0.6	x
CSc1ccc(S(=O)(=O)NCC2CCCO2)cc1 (stereo unspecified)	0.3	-0.113
CCn1c(SCc2ccccc2)nnc1-c1cccnc1	-0.1	-1.19
CCCCCSc1nnc(-c2ccccc2NC(C)=O)c(=O)[nH]1	0.1	0.432
COc1cc(-c2n[nH]c(=O)n2C2CCCCC2)cc(OC)c1OC	3.8	-0.828
CC12CC=CCC1C(=O)N(CCC(=O)O)C2=O (stereo unspecified)	0.6	-1.57
C/C(Cc1ccccc1)=N\NC(=O)c1cc(C(C)(C)C)[nH]n1	1.1	-0.558
Cn1nccc1C(=O)Nc1cc(Cl)ccc1Cl	0.2	0.0385
CCCN1C(=S)N(CCO)C(=O)/C1=C/C=C1/Oc2ccccc2N1CCC(=O)O	-0.4	13.7
O=C(O)CSCc1cn2cc(Cl)ccc2n1	-3.6	x
CSc1nnc(-c2ccc(S(=O)(=O)N=S(C)(=O)c3ccc(Cl)cc3)s2)n1C (stereo unspecified)	1.9	-0.038
CC(C)C(=O)N(Cc1cccnc1)Cc1cc2ccccc2[nH]c1=O	2.4	-1.73
Cc1csc(Sc2ccc(S(=O)(=O)N3CCCC3)cn2)n1	-1.6	x
COC(=O)CCC1CCCCC1=O (stereo unspecified)	0.7	-0.919
CS/C(Nc1cccc(Cl)c1Cl)=C(/C#N)C(=O)c1cccs1	1.7	x
Cc1cccc(C(=O)Nc2ccc(NC(=O)c3cccs3)cc2)c1	-0.5	x
Cc1cccc(NC(N)=O)c1	2.3	x
Cc1nc2ccc(NC(=O)c3ccc4ncsc4c3)cc2s1	5.1	-0.401
N#Cc1c(/N=C/c2cccn2-c2ccc(S(N)(=O)=O)cc2)sc2c1CCCC2	1.6	x
CCN1CCOC(CC(=O)Nc2ccccc2)C1=O (stereo unspecified)	-2.0	0.113
COc1ccccc1N1CCN(S(=O)(=O)c2ccc3[nH]c4c(c3c2)CCCCC4)CC1	-0.3	x
COc1cc(-c2csc(NCC3CCCO3)n2)cc(OC)c1OC (stereo unspecified)	0.3	x
CCn1c(Cc2ccccc2)nnc1SCC(=O)c1ccc2[nH]c(=O)[nH]c2c1	-0.2	x
OCC1OC(Oc2ccc3cc(Br)ccc3c2)C(O)C(O)C1O (stereo unspecified)	-1.6	0.537
Cc1ccc(/C=C/C(=O)N2CCN(c3ncc(C(F)(F)F)cc3Cl)CC2)o1	0.7	x
CCOc1cc(/C=C2\SC(=NC)N(C)C2=O)c(Br)cc1OC(C)=O	-1.5	0.102
O=C(CN1C(=O)COc2ccccc21)c1ccc(Cl)cc1	-0.8	-0.006
Fc1ccccc1-c1nc(-c2cccs2)c(-c2cccs2)[nH]1	0.5	0.957
CN(C)C(CNC(=O)c1cc2ccccc2oc1=O)c1ccco1 (stereo unspecified)	-0.1	-0.421
COc1ccc(NC(=O)COc2ccc(/C=N/n3c(C)nnc3C)cc2OC)cc1	0.9	x
N#CC(C#N)C(CC(=O)c1ccccc1)c1ccc2c(c1)OCO2 (stereo unspecified)	1.1	0.19
CC(C)CNc1c(Cl)cnn(C)c1=O	2.6	-0.71
Cc1cccc(NC(=O)CO/N=C/c2ccc3c(c2)OCO3)c1	0.8	x
Cc1nc2sc3c(c2c(=S)[nH]1)CCC3	1.6	x
COc1ccc(C(=O)OCc2nc3ccccc3c(=O)n2CC#N)c(OC)c1OC	0.6	x
COc1ccccc1C(=O)N=S1CCN(c2ncc(C(F)(F)F)cc2Cl)CC1	2.0	-0.72
Cc1nnc(-c2cccc(C(F)(F)F)c2)nc1NC(C)(C)C	x	0.942
CN1CCC(/C=C/c2cccs2)=N1	-0.9	x
CCOC(=O)c1cc2ccc(OCc3ccccc3)cc2oc1=O	3.9	x
COc1ccc(-c2nc3ncnn3cc2C)cc1F	x	0.438
CSc1ccc(/C=c2/sc3nc4c(C)c(C)ccc4n3c2=O)cc1	2.2	x
CC(=O)Nc1ccc(SCC(=O)Nc2ccc(C#N)cc2)cc1	0.2	x
Cc1nc(-c2coc3cc(O)cc(O)c3c2=O)cs1	3.8	2.24
N#CC1=C(N)Oc2c(c(=O)[nH]c3ccccc23)C1c1ccccc1 (stereo unspecified)	-2.9	2.01
COc1ccc(CCNC(=O)c2cc3oc4ccccc4c3n2C)cc1OC	2.3	0.181
O=C(Cc1csc(NC(=O)Nc2ccc(Cl)cc2)n1)Nc1nccs1	0.8	1.26
CCC(=O)Nc1cc2c(cc1C(=O)CC)OCCO2	3.1	-0.556
New compounds follow.
SMILES	Ab BasE inh	LANA-nucl inh
CC(C)(C)N(CCO)C(=O)CN1C(=O)/C(=C/c2cccc(Br)c2)SC1=S	2.6	x
CCn1c(-c2ccc3c(c2)OCCO3)cnc1SCC(=O)N1CCCC1=O	-0.9	x
COc1ccccc1NC(=O)Nc1ccnn1Cc1ccccc1	-1.0	x
CC(C)(C)C(=O)Nc1ccc2c(c1)OCCO2	-1.8	-0.104
O=C(CCNC(=O)c1ccccc1)Oc1ccc2c(c1)OCO2	1.2	x
COc1cc(N)cc(OC)c1OC	-1.8	x
Cc1ccc(OCCC(=O)N2CCN(Cc3ccccc3)CC2)cc1	0.1	x
CSCCSc1nc(-c2cccs2)c(-c2cccs2)[nH]1	-0.3	x
NC(=O)c1ccc(N=Cc2ccc(O)cc2)cc1	2.5	-0.049
Cc1cc(=O)[nH]c(NN=C2CCN(Cc3ccccc3)CC2)n1	1.6	x
CC(=O)S[C@@H]1CC2=CC(=O)CC[C@]2(C)[C@H]2CC[C@@]3(C)[C@@H](CC[C@@]34CCC(=O)O4)C12 (stereo partly specified)	1.1	0.706&0.579
Cc1ccc(-c2nn(-c3ccccc3)cc2CN(Cc2ccccc2)C(=O)CCC(=O)O)o1	-3.4	1.17
c1ccc(N=C(Nc2ccccc2)Nc2ccccc2)cc1	0.8	x
Nc1ccc2nc(N3CCOCC3)sc2c1	-1.7	x
CCOCCCNc1ccc2nc3ccc(C)cc3c(=O)n2n1	-1.0	-0.0245
O=C(CSc1nc(-c2ccccc2)c(-c2ccccc2)o1)c1ccc[nH]1	0.5	x
O=C1C2C(C(=O)N1c1ccccc1)C1C=CC2C12CC2 (stereo unspecified)	1.1	0.0085
CS(=O)(=O)Nc1nnc(CSc2ccccc2)s1	2.8	-0.637
CN(C)/C=C/C=C1/CCc2ccccc2C1=O	-1.2	-7.87
N/C(=N\OC(=O)Oc1ccccc1)c1ccccn1	2.9	-0.238
CCCn1c(C)cc(-c2csc(NC(=O)Cc3ccc(OC)cc3)n2)c1C	0.5	x
CCOC(=O)c1sc(COc2ccc(C3SCCS3)cc2)nc1C	1.1	x
CCOC(=O)Cc1nc(N)ncc1C(=O)OCC	4.5	x
Cc1nc(SCC(=O)c2c[nH]c3ccccc23)n[nH]1	-1.3	x
O=c1nc2n(c3ccccc13)C(c1ccccc1)C(O)=C2c1nc2ccccc2[nH]1 (stereo unspecified)	1.1	x
COc1ccc(OC)c(C(=O)COC(=O)C2Cc3ccccc3CN2C(=O)c2ccco2)c1 (stereo unspecified)	0.6	x
CCS(=O)(=O)N1CCc2cc(C(=O)CSc3nnc(-c4cccs4)n3C3CC3)ccc21	-1.2	x
CSc1ccccc1NC(=O)CN1c2ccccc2CC1C (stereo unspecified)	-0.8	x
Cc1cc(C)n(-c2ccc(-n3cccc3)cc2)n1	0.0	x
Cn1nc(C(F)(F)F)c(C#N)c1N1CCN(c2ccccc2)CC1	x	-0.16
O=C(NCc1ccccc1)c1ccc2ncccc2c1	-1.0	0.821
Nc1ccc(C(=O)Nc2ccc(C(=O)O)cc2N)cc1	-1.3	x
COc1ccc(N(CC(=O)Nc2ccc(C(C)C)cc2)S(=O)(=O)c2c(C)noc2C)cc1	1.0	0.739
COC(=O)c1cccnc1NC(=S)NC1CCCCC1	2.6	0.941
FC(F)(F)c1cccc(N2Cc3ccccc3C2)c1	3.1	-0.527
C[n+]1ccccc1/C=N/O	-1.3&-1.1	0.564&0.0795
CC(C)N(CC(N)=O)c1nc(-c2cccnc2)nc2ccccc12	2.2	x
CCC(C)n1nccc1NC(=O)C(C)Sc1ccccc1F (stereo unspecified)	1.4	x
Cc1ccc(N/C(=N/C(N)=S)c2ccccc2)cc1	1.6	x
Nc1ncc(N=Nc2cc(C(=O)O)cc(C(=O)O)c2)s1	3.2	x
CN(C)Cn1c(O)c(N=NC(=O)COc2ccc(Cl)cc2)c2ccccc21	2.7	-0.258
CS/C(=N\S(=O)(=O)c1ccc(C)cc1)N1CCCCCC1	-0.6	x
O=C(COC(=O)C1(CC(=O)N2CCOCC2)CCCC1)Nc1c(F)cccc1F	0.0	x
COC(=O)CCC(=O)N1CCOCCOCCOCC1	-0.3	-0.355
Nc1cc(N)nc(SCC(=O)NCc2ccccc2)n1	-1.5	-0.038

Some of the entries above, set out differently:
| compound | Ab BasE inh | LANA-nucl inh |
| --- | --- | --- |
| Nc1ccc2nc(N3CCOCC3)sc2c1 | -1.7 | x |
| CCOCCCNc1ccc2nc3ccc(C)cc3c(=O)n2n1 | -1.0 | -0.0245 |
| O=C(CSc1nc(-c2ccccc2)c(-c2ccccc2)o1)c1ccc[nH]1 | 0.5 | x |
| O=C1C2C(C(=O)N1c1ccccc1)C1C=CC2C12CC2 (stereo unspecified) | 1.1 | 0.0085 |
| CS(=O)(=O)Nc1nnc(CSc2ccccc2)s1 | 2.8 | -0.637 |
| CN(C)/C=C/C=C1/CCc2ccccc2C1=O | -1.2 | -7.87 |
| N/C(=N\OC(=O)Oc1ccccc1)c1ccccn1 | 2.9 | -0.238 |
| CCCn1c(C)cc(-c2csc(NC(=O)Cc3ccc(OC)cc3)n2)c1C | 0.5 | x |
| CCOC(=O)c1sc(COc2ccc(C3SCCS3)cc2)nc1C | 1.1 | x |
| CCOC(=O)Cc1nc(N)ncc1C(=O)OCC | 4.5 | x |
| Cc1nc(SCC(=O)c2c[nH]c3ccccc23)n[nH]1 | -1.3 | x |
| O=c1nc2n(c3ccccc13)C(c1ccccc1)C(O)=C2c1nc2ccccc2[nH]1 (stereo unspecified) | 1.1 | x |
| COc1ccc(OC)c(C(=O)COC(=O)C2Cc3ccccc3CN2C(=O)c2ccco2)c1 (stereo unspecified) | 0.6 | x |
| CCS(=O)(=O)N1CCc2cc(C(=O)CSc3nnc(-c4cccs4)n3C3CC3)ccc21 | -1.2 | x |
| CSc1ccccc1NC(=O)CN1c2ccccc2CC1C (stereo unspecified) | -0.8 | x |
| Cc1cc(C)n(-c2ccc(-n3cccc3)cc2)n1 | 0.0 | x |
| Cn1nc(C(F)(F)F)c(C#N)c1N1CCN(c2ccccc2)CC1 | x | -0.16 |
| O=C(NCc1ccccc1)c1ccc2ncccc2c1 | -1.0 | 0.821 |
| Nc1ccc(C(=O)Nc2ccc(C(=O)O)cc2N)cc1 | -1.3 | x |

The list continues.
SMILES	Ab BasE inh	LANA-nucl inh
CC1=[N+]([O-])C(N2CCOCC2)C(O)(c2ccccc2)C1 (stereo unspecified)	2.1	3.66
CC(C)(C)OCC(O)CN1CCN(C(=O)c2ccccc2)CC1 (stereo unspecified)	-1.4	0.348
Cc1nc2ccc(C(=O)OCC(=O)C(C)(C)C)cc2nc1C	-1.4	x
Cc1cccc(C)c1NC(=O)C1c2cccc[n+]2CC(=O)N1CCO (stereo unspecified)	2.6	-1.27
CCCCNS(=O)(=O)c1ccc(S(=O)(=O)n2cnc3ccccc32)cc1	0.8	-0.538
CCOC(=O)c1sc2nc(NC(=O)c3cccs3)sc2c1C	2.2	0.396
Cc1cc2ccccc2c(=O)n1CC(=O)NCCC1=CCCCC1	0.5	-0.714
CCOP(=O)(/C(C#N)=C(\C)O)c1ccccc1 (stereo unspecified)	-0.5	x
COc1cccc(-c2ocnc2C(=O)Nc2ccc(N3Cc4ccccc4C3)cc2)c1	-0.4	-0.113
CCOC(=O)N1CCN(C(=O)C(NC(=O)c2ccc(C(C)(C)C)cc2)C(C)C)CC1 (stereo unspecified)	1.1	x
COC(=O)C1=C(Nc2ccccc2NC(=O)c2ccccc2C(=O)O)CSC1	1.4	x
CN1CCc2c(sc(-n3cccc3)c2CNC(=O)NCc2ccccc2)C1	-1.5	-0.443
CCOc1ccc(S(=O)(=O)N(C)CC(=O)NC2CCCCC2)cc1C	1.3	-1.1
O=C1CS/C(=N\N=C2C3CC4CC(C3)CC2C4)N1	-0.1	1.23
COc1ccccc1NC(=O)N1CCN(Cc2ccccc2)CC1	-1.4	-0.334
COc1ccc(CNC(=O)CN2CC(C)CC(C)C2)c(OC)c1 (stereo unspecified)	-1.3	-0.705
COC(=O)c1cccc(NC(=O)CSc2ncccn2)c1	1.0	-0.736
Cc1csc2c(N3CCN(C(=O)c4ccc(Cl)cc4)CC3)ncnc12	0.7	-0.852
